Screening data deposited in PubChem BioAssay by ICCB-Longwood Screening Facility, Harvard Medical School.
GIV-Gai inh: inhibitors of GIV peptide binding to Galpha-i3, primary screen, biochemical, fluorescence polarization, FITC-GIV GBA peptide, rat Galphai3 | AID 1224905, 2016 | Guanine nucleotide-binding protein G(i) subunit alpha-3 (Rattus norvegicus), P08753 | percent of control (FP), % (no concentration beside the values) | 90 min; stronger effect = lower value; scaled: aluminum fluoride 0%, vehicle 100% | hit rate 0.42% among 210,000;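 active means replicate mean at 85% of control or lower, very high polarization wells dropped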;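 further: wells of about 15 µL received 100 nL stock; the first replicate is given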
Target sequence (P08753 whole entry, looked up): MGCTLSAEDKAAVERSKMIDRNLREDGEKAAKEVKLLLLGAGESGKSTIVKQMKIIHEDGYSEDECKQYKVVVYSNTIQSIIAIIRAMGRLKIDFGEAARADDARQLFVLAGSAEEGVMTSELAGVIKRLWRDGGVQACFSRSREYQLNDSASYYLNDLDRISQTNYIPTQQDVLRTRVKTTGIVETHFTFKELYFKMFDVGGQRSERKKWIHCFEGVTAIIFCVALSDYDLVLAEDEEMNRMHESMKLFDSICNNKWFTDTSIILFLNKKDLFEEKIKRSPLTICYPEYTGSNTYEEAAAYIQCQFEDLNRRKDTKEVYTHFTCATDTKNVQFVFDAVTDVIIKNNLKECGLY
HCMV NEC inh: inhibitors of HCMV UL50-UL53 interaction, biochemical, HTRF; inhibition, % (no concentration beside the values); hit rate 0.15% among 190,000; normalized percent inhibition;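 active means both replicates at 50% or more, plus weaker picks with an unusually low signal ratio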;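 further: stock transfer was 100 nL into about 20 µL; 0% = negative control wells and 100% = wells with untagged competitor protein; inactives centre near -12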
Sa growth inh: S. aureus growth inhibition at 42 and 30 °C, primary screen, LtaS inhibitor project, RN4220, two temperatures. hit rate 0.53% among 170,000. relative growth, % (test concentration not listed). OD600, 20 h, 42 °C; stronger effect = lower value;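 active means growth at 42 °C up to 50% and 20 or more points under that at 30 °C, or under 10% at both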;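 further: 300 nL library stock went into each well; scaled to the means of positive and negative controls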
Sa growth inh second temp: second read-out of Sa growth inh, no call of its own (marks repeat the call); relative growth, %; measured here: growth at 30 °C;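 optical density after 20 h as mean of two plates; 100% = untreated growth and lower means inhibition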
* = called active by the depositor; · = no result given; & = joins results of further samples. An unsorted share of the library (roughly 0.82% active in at least one column).

SMILES	GIV-Gai inh	HCMV NEC inh	Sa growth inh	Sa growth inh second temp
Cc1ccccc1OCC(=O)Nc1c(C(=O)Nc2ccccc2F)oc2ccccc12	111	21	103	97
COc1cc(/C=C2\SC(=Nc3cc(C)cc(C)c3)NC2=O)c([N+](=O)[O-])cc1OC	103	-27	·	·
Cc1ccc(S(=O)(=O)CCN2CCC(n3cccc3)CC2)cc1	102	-21	86	86
CN1/C(=C\C(=O)CN2C(=O)NC3(CCCCC3)C2=O)C(C)(C)c2ccccc21	·	-22	89	88
CCNc1nc(NC(C)C)nc(C(=O)O)n1	94	-12	98	103
CCN(CC)c1ccc(NC(=S)Nc2ccc(S(N)(=O)=O)cc2)cc1	106	-6	96	94
Cc1cc2cc(CN(Cc3ccco3)C(c3nnnn3C3CCCC3)C(C)C)c(=O)[nH]c2cc1C (centres undefined)	105	2	96	111
Cc1cc(C)cc(-n2c(C)cc(/C=C3/C(=N)N4C=CSC4=NC3=O)c2C)c1	110	-30	89	71
Cc1cccc(N2C(=O)CC(Sc3ncccc3C(=O)O)C2=O)c1C (centres undefined)	101	-30	108	91
COc1ccc(S(=O)(=O)N/N=C(/C2CCCCC2)C(F)(F)F)cc1	99	-12	134	87
CC(C)N(C(=O)CSc1nnc(-c2ccc3c(c2)OCO3)n1C)C(C)C	98	-18	80	91
CCOc1ccc(OCCCC(=O)OCc2nnc3n(C)c(=O)c4ccccc4n23)cc1	·	-7	69	86
COC(=O)C(O)(NS(=O)(=O)c1ccccc1)C(F)(F)F (centres undefined)	·	-14	49	36
CC/C(O)=C1\C(=O)CCCC1=NCCc1c(C)[nH]c2ccccc12	·	0	102	88
C=CCNC(=O)c1ccc(Cn2nc(-n3cccc3)c3c(C)cc(C)nc32)cc1	108	2	·	·
Cc1nn(C(=O)Cc2ccc(Cl)cc2)c(C)c1Br	·	-4	112	88
CCN=C1SC(CC(=O)Nc2cccc(C(F)(F)F)c2)C(=O)N1CC (centres undefined)	100	-9	·	·
CCN(CCCNC(=O)c1cc2cc3cc(C)ccc3nc2s1)c1cccc(C)c1	93	·	74	81
O=C(O)C1CSC(c2ccc(OCc3ccccc3Cl)cc2)N1 (centres undefined)	95	-2	·	·
CC1CCCCN1CCCNC(=O)Nc1cn(C)c(=O)c2ccccc12 (centres undefined)	104	-29	·	·
COc1cc(C(=O)NC(C)(C)CC(C)(C)C)cc(OC)c1OC	104	-9	89	84
Cc1nc2c(cc(O)c3ccsc32)s1	·	-20	86	93
O=C(O)C1=CN2CCS(=O)(=O)N=C2C=C1	·	9	102	102
CCc1ccc(OC(C)c2nc(-c3ccc(-n4cccc4)cc3)no2)cc1 (centres undefined)	111	9	99	102
COc1ccc(C(=O)COC(=O)c2ccc3c(=O)n4c(nc3c2)CCC4)cc1OC	·	-20	58	94

Sorted by molecular weight (descending): part of the list above.
SMILES	GIV-Gai inh	HCMV NEC inh	Sa growth inh	Sa growth inh second temp
Cc1cc2cc(CN(Cc3ccco3)C(c3nnnn3C3CCCC3)C(C)C)c(=O)[nH]c2cc1C (centres undefined)	105	2	96	111
CCOc1ccc(OCCCC(=O)OCc2nnc3n(C)c(=O)c4ccccc4n23)cc1	·	-7	69	86
CCN(CCCNC(=O)c1cc2cc3cc(C)ccc3nc2s1)c1cccc(C)c1	93	·	74	81
CN1/C(=C\C(=O)CN2C(=O)NC3(CCCCC3)C2=O)C(C)(C)c2ccccc21	·	-22	89	88
CCN=C1SC(CC(=O)Nc2cccc(C(F)(F)F)c2)C(=O)N1CC (centres undefined)	100	-9	·	·
COc1ccc(S(=O)(=O)N/N=C(/C2CCCCC2)C(F)(F)F)cc1	99	-12	134	87
CCc1ccc(OC(C)c2nc(-c3ccc(-n4cccc4)cc3)no2)cc1 (centres undefined)	111	9	99	102
CC1CCCCN1CCCNC(=O)Nc1cn(C)c(=O)c2ccccc12 (centres undefined)	104	-29	·	·
O=C(O)C1CSC(c2ccc(OCc3ccccc3Cl)cc2)N1 (centres undefined)	95	-2	·	·
Cc1ccc(S(=O)(=O)CCN2CCC(n3cccc3)CC2)cc1	102	-21	86	86
COc1cc(C(=O)NC(C)(C)CC(C)(C)C)cc(OC)c1OC	104	-9	89	84
COC(=O)C(O)(NS(=O)(=O)c1ccccc1)C(F)(F)F (centres undefined)	·	-14	49	36
O=C(O)C1=CN2CCS(=O)(=O)N=C2C=C1	·	9	102	102
Cc1nc2c(cc(O)c3ccsc32)s1	·	-20	86	93

Going on with the list.
SMILES	GIV-Gai inh	HCMV NEC inh	Sa growth inh	Sa growth inh second temp
Cc1ccc(C)c(NC(=O)c2cc(S(=O)(=O)N3CCCc4ccccc43)ccc2F)c1	99	·	132	100
CN(C1CCS(=O)(=O)C1)S(=O)(=O)c1ccc(Cl)cc1 (centres undefined)	103	-2	87	92
CC(=O)Nc1cc(C(=O)NCCc2ccc(C)cc2)ccc1S(=O)(=O)c1ccc(Cl)cc1	103	2	95	86
CCOCCCNCc1ccc(-c2cc(Cl)ccc2Cl)o1	105	0	·	·
CCN(CC)S(=O)(=O)c1ccc(-c2ccc(/C=N/N=C3\NC(=O)C(CC(=O)Nc4ccccc4)S3)o2)cc1 (centres undefined)	·	-13	71	72
COc1ccc(C)cc1NC(=O)N(C(C)C)C1CCN(C(C)=O)CC1	99	-22	116	93
CCc1ccccc1N1CC(c2nnc(NC(=O)c3ccco3)s2)CC1=O (centres undefined)	101	-15	109	91
CC(NC(=O)Cc1csc(NC(=O)c2ccccc2)n1)c1ccccc1 (centres undefined)	103	-30	·	·
NS(=O)(=O)c1ccc(CNC(=O)c2ccc(C(=O)N(C3CCCCC3)C3CCCCC3)cc2)cc1	·	0	93	115
Cc1ccc(C(=O)NC2CCCC2)s1	·	-33	97	80
COc1ccc(N2CCN(C(=S)c3ccccc3)CC2)cc1	108	-4	110	89
CC(=O)N(Cc1ccc(S(N)(=O)=O)cc1)C1CC(=O)N(c2ccccc2)C1=O (centres undefined)	·	-8	110	86
N#Cc1ccc(CSC(=N)N)cc1	108	-8	83	87
Cc1cccc(N2CCN(C(=O)CSc3nc4ccccc4nc3N3CCCCC3)CC2)c1C	100	-17	·	·
CS(=O)(=O)N1CCN(C(=S)Nc2cccc3ccccc23)CC1	101	-16	106	101
COc1cccc(-c2nc3c(s2)CN(S(=O)(=O)c2cccc4nsnc24)CC3)c1	101	-21	·	·
O=C1NC(c2ccccc2)=NC1=C(Cl)Cl	·	-13	76	100
CC(=O)Nc1ccc(N2C(=O)CC(/C=C3/N(C)c4ccccc4C3(C)C)C2=O)cc1 (centres undefined)	131	-44	83	83
COC(=O)c1c[nH]c2ccc(S(=O)(=O)N3CCCC3)cc2c1=O	102	3	95	89
O=C(O)C1CCC(=O)N1C1c2ccccc2Oc2ccccc21 (centres undefined)	102	9	106	94
CC1(C)CC(=O)C2=C(C1)NC(SCC(=O)N1CCOCC1)=C(C#N)C2c1ccco1 (centres undefined)	104	-32	74	60
Cc1cccc(CNC(=O)C2CCCN(c3nn4c(=O)cc(C)nc4s3)C2)c1 (centres undefined)	102	-21	·	·
CCOc1ccc(/C=C2\SC(N3CCCC3)=NC2=O)cc1	99	·	108	72
CC(C)c1ccc(NC(=O)c2cc(S(=O)(=O)NCCc3ccccc3)ccc2F)cc1	99	·	95	63
OC(CNCc1ccc2c(c1)OCO2)COc1ccccc1 (centres undefined)	111	6	105	98
(more compounds)
SMILES	GIV-Gai inh	HCMV NEC inh	Sa growth inh	Sa growth inh second temp
Cc1ccc(CC(=O)Nc2nccs2)cc1	101	-2	127	107
O=C(CNCCc1ccc2c(c1)OCCO2)NC1CCCCCC1	·	3	91	94
C=CCNC(=O)CCc1nnc2n(CCCC)c(=O)c3sccc3n12	100	-28	·	·
CCN(CC)S(=O)(=O)c1cccc(C(=O)Nc2ccccc2C(=O)Nc2ccc(Cl)cc2)c1	105	·	92	91
COc1ccc(C2CC(=O)C3=C(C2)NC(C)=C(C(=O)OC(C)C)C3c2ccc(SC)cc2)cc1OC (centres undefined)	102	-24	·	·
CN(C(=O)CSc1nncn1-c1ccccc1)C1CCCCC1	·	-6	112	87
O=C(Nc1cccc(Br)c1)c1cc(S(=O)(=O)N2CCCCC2)c[nH]1	102	·	114	90
N#CCC(=O)NS(=O)(=O)c1ccccc1	·	-10	106	89
CC(C)C1Oc2ccccc2N(CC(=O)N(Cc2ccccn2)C2CC2)C1=O (centres undefined)	102	-1	132	93
CCc1ccc(NC(=O)Cn2nnc(C(=O)Nc3ccc(F)cc3)c2N)cc1	110	·	91	101
Cc1ccc(Cc2c(C)[nH]n(-c3nc(C)c(C(=O)N4CCc5ccccc5C4)s3)c2=O)cc1	102	-14	·	·
Cc1c(C(=O)N2CCCCC2)sc2ncnc(N3CCN(c4ccccn4)CC3)c12	108	4	·	·
Cc1ccc(-c2nnn(CC(=O)N(Cc3ccccc3)C(C(=O)NC3CCCC3)c3ccco3)n2)cc1 (centres undefined)	95	-14	114	87
O=C(OCC(=O)N1CCN(c2ccccc2)CC1)c1ccco1	·	-24	82	81
Cc1cc(-c2ccc(C)c(S(=O)(=O)Nc3cccc(C#N)c3)c2)on1	100	·	95	71
CCOC(=O)c1cnc(SCC(=O)Nc2cc(Cl)ccc2C)nc1N	113	-16	·	·
NC(=O)Cn1nnc(-c2ccccc2N)n1	99	-8	79	95
CN1CCN(C(=O)NC2CCCCC2)CC1	100	-16	80	92
COc1ccc(CCN2C(=O)NC(NC(=O)c3ccccc3OC)(C(F)(F)F)C2=O)cc1OC (centres undefined)	105	-37	101	76
O=C(NCc1csc(-c2ccccc2)n1)c1cc(F)cc2c1OCOC2	99	-7	106	98
O=C(Nc1ccccc1)N1CCN2C(=O)c3ccccc3C12c1ccccc1 (centres undefined)	101	·	120	75
COc1ccc(OC(=O)c2nc(SCc3ccc(F)cc3)ncc2Cl)cc1	102	-24	98	86
COc1ccccc1C(=O)NCCC(=O)Nc1cc(C(N)=O)cc(C(N)=O)c1	·	-15	99	89
CC(C)CNC(=O)CCn1cnc2onc(-c3ccc(F)cc3)c2c1=O	109	-6	100	101
COc1ccc(C2C(C(=O)Nc3cccc(OC)c3)CCC(=O)N2c2ccc(OC)cc2)cc1 (centres undefined)	99	2	109	74
Further compounds follow:
SMILES	GIV-Gai inh	HCMV NEC inh	Sa growth inh	Sa growth inh second temp
Cc1ccc(C(CC(=O)Nc2ccc(C)cc2C)N2Cc3ccccc3C2=O)cc1 (centres undefined)	100	·	75	64
COc1ccc(-c2cn3nc(N4CCCC(C(=O)Nc5cccc(Cl)c5C)C4)sc3n2)cc1 (centres undefined)	105	·	102	74
N=C1/C(=C\c2coc3ccccc3c2=O)C(=O)N=C2SC=NN12	-55*	·	90	70
O=C(N/N=C/c1ccc2c(c1)OCO2)C1CC1C(=O)N/N=C/c1ccc2c(c1)OCO2 (centres undefined)	103	-14	87	88
CCc1nn(CCCC(=O)NC(C)c2ccccc2)c(=O)c2cc3occc3n12 (centres undefined)	103	-16	102	82
O=C(Cn1c(=O)c2cccn2c2ccccc21)NCCc1ccc(Cl)cc1	104	·	118	91
CCOc1cc(C2Nc3ccc(C(=O)c4ccccc4)cc3NC3=C2C(=O)CC(C)(C)C3)ccc1O (centres undefined)	105	-44	·	·
COc1ccc(C2C=C(c3ccc(Cl)cc3)Nc3nc(N4C(=O)CCC4=O)nn32)cc1 (centres undefined)	122	-54	·	·
COc1ccccc1CNc1nc2ccccc2n1C(C)C	100	-2	96	75
COc1ccc(NC(=O)/C=C/c2ccc(Cl)cc2)cc1	105	-21	·	·
CCOc1cc(C(=O)OCC(=O)Nc2ccccc2Cl)ccc1OCC(=O)N1CCOCC1	·	-8	97	95
O=C(NC1CCCCC1)c1ccc2c(c1)N(Cc1ccccc1Cl)C(=O)c1ccccc1S2	117	·	115	109
Nc1cc(=O)nc(SCC(=O)NC2CCCCC2)n1-c1ccccc1	106	-2	99	87
O=C(O)c1ccc2c(c1)CCCC2	107	-13&-23&-23	107	108
O=C(NCC1CCCO1)c1ccc(N2CCNCC2)c(NS(=O)(=O)c2ccc3c(c2)CCCC3)c1 (centres undefined)	103	8	·	·
CCN(CC)CCC(=O)c1ccc(OC(C)C)cc1	103	-33	60	77
COc1ccc(/C=C2\N=C(c3ccc(Br)cc3)OC2=O)cc1OC(C)=O	101	-25	·	·
COc1cccc(CNC(=O)Cn2ccc3cc(S(=O)(=O)N4CCCC4)ccc32)c1OC	106	·	113	86
Cc1cc(C)c2nc3s/c(=C/c4ccc(Br)c([N+](=O)[O-])c4)c(=O)n3c2c1	106	-15	·	·
Cc1cc(-c2c(C(=O)Sc3ccccc3)c(C)nn2-c2cccc(C(F)(F)F)c2)no1	104	-28	89	70
O=Nc1[nH]c(O)c2cc(Br)ccc12	103	-60	58	51
Cc1nn(C)c2nc(-c3cccs3)cc(C(F)(F)F)c12	·	-6	95	90
N#CCOc1ccc2c3c(c(=O)oc2c1)CCC3	111	-10	76	76
COc1ccc(C(=O)c2cn(Cc3ccccc3F)c3ccc(F)cc3c2=O)cc1	96	-29	81	79
COc1ccc(C)cc1NCC(=O)Nc1ccc2c(c1)OCO2	·	-28	99	91
COC(=O)c1ccc(C=C(C#N)C#N)n1-c1ccc(F)cc1	103	-46	101	85
CC(C)Cn1cnc2nc(CSc3ccccc3NC(=O)C3CCCCC3)cc(=O)n21	97	-23	·	·
O=C(CSc1cn(CCNC(=O)c2ccccc2F)c2ccccc12)Nc1ccc2c(c1)OCCO2	106	-12	100	93
